Screening results (PubChem)
RN4220 kill = S. aureus RN4220 growth inhibition | OD600, 16 h | hit rate 0.33% among 330,000 | AID 1259311 | inhibition, % (concentration not given with the values);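 active = z-score of -3 or lower and OD600 up to 0.18 on both plates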;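 also: plate controls were untreated cells for no effect and reference antibiotic for full effect; stock transfer was 100 nL into about 80 µL; one replicate is shown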
BJeLR viability = kills HRASV12-expressing BJeLR cells; BJeLR (HRASV12) viability, CellTiter-Glo ATP luminescence, 48 h; reference of the scale not given here; inhibition, % (concentration not given with the values); hit rate 0.17% among 300,000; AID 1554;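 active = replicate mean above 50%; inconclusive = above 50% but judged a plate artefact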;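 also: 50 nL library stock added to about 25 µL; numbers are from one replicate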
ugtP null kill = growth inhibition of S. aureus ugtP deletion strain. S. aureus RN4220 ugtP deletion, OD600 growth, 16 h; some inactives read as strong as hits. growth inhibition, % (test concentration not listed). hit rate 0.54% among 330,000. AID 1259309;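 active = z-score under -3 and OD600 up to 0.15 on both plates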;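 also: plate controls were untreated wells for no effect and antibiotic for full effect; wells of about 80 µL received 100 nL stock; the first replicate is given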
Autofluor counter = counter-screen for toxin protease inhibitors: compound fluorescence; compound autofluorescence counterscreen, microsphere flow cytometry; active compounds read high; fluorescence intensity (concentration not given with the values); hit rate 3.1% among 360,000; AID 624483;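 active = at least 3 SD above the mean of all compounds, about 16000 in these data; inconclusive = too few beads counted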;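 also: 100 nL of 1 mM stock went into each well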
PrP 5UTR inh = inhibition of PrP 5' UTR reporter expression; cell-based PrP 5' UTR mRNA reporter, plate reader; inhibition, % (test concentration not listed); hit rate 0.35% among 340,000;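 active = every replicate at 50% or more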;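 also: 0 = median of the neutral control wells; tested in H4 reporter cells; numbers are from one replicate; inactives centre near -14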
Mtb hypoxia rep = reduces hypoxia-regulated biosensor signal in M. tuberculosis; M. tuberculosis hypoxia-regulated fluorescent reporter, fluorescence; fluorescence inhibition, % (test concentration not listed); hit rate 0.1% among 300,000; AID 1159583;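 active = 35 to 45% if threefold the growth effect, above 45% if 1.5-fold the growth effect; inactive = the rest, general growth blockers included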;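 also: wells of about 50 µL received 100 nL stock; 0% = vehicle wells and 100% = reference inhibitor wells; whole bacteria with a GFP reporter of the hypoxia response; strong numbers were not always called active; many hits fall short of the cut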
Mtb hypoxia rep growth = recorded beside Mtb hypoxia rep, whose call it bears; growth inhibition, %; measured here: M. tuberculosis growth (absorbance);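 0% = vehicle and 100% = reference antibiotic; read after six days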
Starred values were filed as active, the others as inactive; ? = inconclusive; . = no result given.

SMILES	RN4220 kill	BJeLR viability	ugtP null kill	Autofluor counter	PrP 5UTR inh	Mtb hypoxia rep	Mtb hypoxia rep growth
CC[C@]12c3[nH]c4cc(-c5ccco5)ccc4c3CCN1C(=O)[C@@H](CC(=O)NCCCOC)C[C@@H]2C(=O)N1CCN(C(=O)C2CC2)CC1	2.3	.	4	2853	-17	4	7
CC(=O)Nc1nc(-c2ccc3c(c2)CC(C)N3C(=O)C2CC2)c(C)s1 (stereo not given)	5.7	0	-1	6088	-9	7	-4
O=S(=O)(NNc1ncc(C(F)(F)F)cc1Cl)c1ccc(F)cc1F	5.9	.	6	4967	-7	8	-1
Nc1ccc2[nH]c(=S)sc2c1	-2.2	.	-4	3876	-32	25	12
Nc1ccncc1N	.	-2	.	5765	-12	.	.
COc1ccc(N(CC(=O)NCc2ccc(F)cc2)S(=O)(=O)c2c(C)noc2C)cc1	-2.7	10	2	5594	3	5	4
Cc1occc1C(=O)NNC(=O)Nc1ccc(F)cc1F	3.1	6	5	10970	-20	2	14
CN(C[C@H](Cc1ccccc1)N(C[C@H](Cc1ccccc1)N(CCC(C)(C)C)N=O)N=O)N=O	.	9	.	2745	-10	.	.
CN(Cc1ccccc1)C(=O)CN1C(=O)NC2(CCCC2)C1=O	-2.5	.	-4	2816	-9	-1	-6
O=C(CCC(=O)c1cccs1)Nc1ccccc1F	3.2	-2	10	3175	1	-1	-6
Cc1csc(=O)n1CCC(=O)OCC(=O)Nc1ccc(F)c(F)c1F	1.3	5	3	4788	-15	6	4
O=Cc1ccccc1-n1cccn1	2.2	-3	4	3223	8	4	0
CCCCN1C(=O)C(C)=C(C)C1OCCc1ccc(OC)c(OC)c1 (stereo not given)	6.8	-1	2	3246	-8	-2	4
Cc1ccc(C(=O)Nc2nc3ccc(S(C)(=O)=O)cc3s2)o1	0.5	5	13	9882	-48	2	12
CCOP(=O)(OCC)c1nc(-c2ccc(Cl)cc2Cl)oc1N1CCCCC1	8.2	-1	4	3892	7	11	11
C/C(Cc1ccccc1)=N\NC(=O)CNC(=O)c1cccc(F)c1	.	-4	.	4640	-1	.	.
CC[C@@]1(C(=O)OC)N[C@H](CN(C)C(=O)COC)[C@@H]2C(=O)N(C)C(=O)[C@@H]21	-0.1	.	3	3462	-11	1	3
NC(=O)c1ccc(NC(=O)CCC(=O)N2CCN(S(=O)(=O)c3ccc(Cl)cc3)CC2)cc1	3.7	10	3	?	-29	5	0
Nc1ccccc1Sc1nc2ccccc2[nH]1	-6.8	3	10	4376	-42	7	1
CCOc1ccc(C(=O)NCCc2cnc[nH]2)cc1	3.5	14	3	3918	-8	3	-1
Cc1sc(NC(=O)/C=C/c2ccc(C(C)C)cc2)c(C#N)c1C	-1.8	6	0	9052	-10	-5	-3
CCc1ccc(NC(=O)CSc2nnc(C3CC3)n2CC2CCCO2)cc1 (stereo not given)	3.0	-13	7	5716	-18	13	2
CCNc1nc(NC(C)C)nc(OCCOC(=O)c2ccccc2)n1	3.5	1	7	22888*	-12	-1	-2
Cc1cc(C)cc(NS(=O)(=O)CCCS(=O)(=O)Nc2cc(C)cc(C)c2)c1	7.0	.	-16	3705	-9	13	8
CCOc1cc(S(=O)(=O)NCc2ccccn2)ccc1Cl	5.1	-6	1	12454	-16	.	.
COC(=O)C1=C(c2ccccc2)CC2CCC1N2C(=O)NCc1ccccc1 (stereo not given)	6.3	.	4	.	.	11	7
Cc1ccc(C)c(OCCC(=O)OCC(=O)N2c3ccccc3NC(=O)C2(C)C)c1	3.9	.	-2	3524	0	2	2
Cc1cccc(-c2nc3c(c(SCC(=O)N4CCOCC4)n2)COC(C)(C)C3)c1	3.3	4	4	5370	-4	-3	0
O=C(NN=Cc1cccc2ccccc12)c1cc(C2CC2)[nH]n1	1.9	.	-1	.	.	10	4
CC12CCC(C(=O)Nc3c(Cl)cccc3Cl)(C(Br)C1=O)C2(C)C (stereo not given)	-1.0	0	-9	2451	-13	-1	-12
CC(=O)NC(C)Cc1ccccc1 (stereo not given)	4.6	0	10	2891	-14	1	9
CCOC(=O)c1ccccc1NC(=O)C1CC(=O)N(c2ccccc2)C1 (stereo not given)	5.1	-10	1	2668	-18	-2	8
CCOC(=O)C1Oc2ccccc2C(C(=O)OC)=C1C(=O)OC (stereo not given)	1.5	.	1	3703	34	-5	5
CCOc1ccccc1N1CCN(C(=O)Nc2cccc(Cl)c2)CC1	3.0	1	-4	8674	-24	7	5
CCOc1cccc2cc(C(=O)Oc3ccc(OC)cc3)c(=O)oc12	6.6	2	5	4297	-61	10	1
Cc1cccc(NC(=O)COn2nnc3ccc(S(C)(=O)=O)cc32)c1	10	-3	5	4014	-3	3	11
COc1ccc(Nc2c3c(nc4ccccc24)CCC3)c(OC)c1	0.2	15	6	3569	0	0	3
CC1CC(C)CN(C2CCCCC2NS(=O)(=O)c2ccc(Cl)cc2)C1 (stereo not given)	1.9	-1	3	3198	-1	-5	-4
Cc1ccc(S(=O)(=O)N2CCCCC2)cc1C(=O)OC(C)C(=O)NC1CCCCC1C (stereo not given)	2.3	.	8	5302	-19	3	3
N#CCOC(=O)c1sccc1-n1cccc1	0.8	-1	2	4563	0	.	.
COc1ccc(C2CC(c3cccs3)=NN2C(=O)CSC2=NN3CCCC(=O)N=C3S2)cc1 (stereo not given)	-0.2	-13	3	5060	-9	2	-2
CCCCn1c(N)c(N(CCOC)C(=O)C(C)Oc2ccc(Cl)cc2)c(=O)[nH]c1=O (stereo not given)	2.9	6	2	6264	-10	6	1
CC(C)(C)CC(=O)Nc1cccc(-c2cn3cccnc3n2)c1	4.3	-12	2	2179	-34	5	6
CC(C)(C)OC(=O)N1CC2Cc3[nH]c(=O)ccc3C(C2)C1 (stereo not given)	4.8	7	15	3562	1	7	7
CC(Nc1nc(N2CCN(S(C)(=O)=O)CC2)nc2ccccc12)c1ccccc1 (stereo not given)	-1.9	1	-20	3743	-9	-5	-29
COc1ccc(S(=O)(=O)N2CCC(NC(=O)C3CCCCC3)CC2)cc1	-0.2	-1	5	3770	-33	5	10
C=CCSc1nc2ccccc2c(=O)[nH]1	0.9	5	13	6107	-15	10	0
O=C(N/C=C\c1ccccc1)NCc1ccc(Cl)cc1Cl	-12	2	7	4732	0	.	.
O=C(Nc1ccc(F)cc1)N1CCN(CCc2ccccc2)CC1	-1.2	0	0	1981	-14	3	1
CC(CNC(=O)COc1ccc2c(c1)OCO2)c1ccccc1 (stereo not given)	2.4	.	1	3669	-13	10	11

6 compounds out of the list, arranged by length of the SMILES, rising:
SMILES	RN4220 kill	BJeLR viability	ugtP null kill	Autofluor counter	PrP 5UTR inh	Mtb hypoxia rep	Mtb hypoxia rep growth
C=CCSc1nc2ccccc2c(=O)[nH]1	0.9	5	13	6107	-15	10	0
O=C(N/C=C\c1ccccc1)NCc1ccc(Cl)cc1Cl	-12	2	7	4732	0	.	.
CC(C)(C)OC(=O)N1CC2Cc3[nH]c(=O)ccc3C(C2)C1 (stereo not given)	4.8	7	15	3562	1	7	7
COc1ccc(S(=O)(=O)N2CCC(NC(=O)C3CCCCC3)CC2)cc1	-0.2	-1	5	3770	-33	5	10
CCCCn1c(N)c(N(CCOC)C(=O)C(C)Oc2ccc(Cl)cc2)c(=O)[nH]c1=O (stereo not given)	2.9	6	2	6264	-10	6	1
COc1ccc(C2CC(c3cccs3)=NN2C(=O)CSC2=NN3CCCC(=O)N=C3S2)cc1 (stereo not given)	-0.2	-13	3	5060	-9	2	-2

Following part.
SMILES	RN4220 kill	BJeLR viability	ugtP null kill	Autofluor counter	PrP 5UTR inh	Mtb hypoxia rep	Mtb hypoxia rep growth
CCOc1cc(/C=C2\C(=N)N3N=C(S(=O)(=O)CC)SC3=NC2=O)ccc1OC(=O)c1ccco1	4.2	-2	2	6617	-10	13	13
COCCOC(=O)c1c(C)oc2ccc(OS(C)(=O)=O)cc12	5.4	6	-4	4344	-22	6	5
COc1ccc(N2C(=O)CC(S/C(N)=N/N=C(C)c3cccs3)C2=O)cc1 (stereo not given)	1.8	.	12	.	.	4	11
O=C(N/N=C/C=C\c1ccccc1[N+](=O)[O-])c1ccccn1	.	-12	.	2271	-27	.	.
Cc1cccc(-n2ccnc2SCC(=O)Nc2ccc3c(c2)OCCO3)c1	0.2	2	8	3017	-19	.	.
COc1ccccc1NC(=S)NN=C1CC(C)(C)Oc2ccc(O)cc21	17	.	7	.	.	-4	9
CCN(CC)C(=O)C1CCCN(Cc2ccc(F)c(F)c2)C1 (stereo not given)	-1.0	6	3	11009	-16	4	13
O=C1CCC/C(=N\NC(=O)NC2CCCCC2)C1	.	-4	.	4573	-13	.	.
COC(=O)c1cccc(NC(=O)Nc2ccc(Cl)c(Cl)c2)c1	61	-8	64	10201	.	-10	4
CCc1cc2c(NCC3CCCO3)ncnc2s1 (stereo not given)	6.9	-12	-1	3748	1	17	19
COc1ccccc1C1CC(c2ccc(F)cc2)Nc2ncnn21 (stereo not given)	1.8	6	-1	9250	-10	9	7
Cn1c(=O)cc(SCC(=O)NCc2ccc(F)cc2)c2ccccc21	-1.2	-2	9	2725	-11	8	-21
Cc1cc(C)n(-c2nnc(C)n2/N=C/c2ccccc2F)n1	.	-17	.	22946*	-7	.	.
O=C(c1ccc(F)cc1)c1cc2ccccc2o1	9.1	-5	3	24066*	-53	13	10
C=CC(C)C(C(=O)c1ccccc1)N(C)C (stereo not given)	4.2	.	7	4372	-17	7	0
O=C(Nc1nccs1)c1sc2cc(Cl)ccc2c1Cl	9.6	-4	-12	9842	-46	-74	-5
Cc1cc(S(=O)(=O)N(Cc2ccc3c(c2)OCO3)CC2CCCO2)ccc1-n1cnnn1 (stereo not given)	-4.1	-5	-4	4781	-3	.	.
Cc1noc(C)c1CSCC(=O)Nc1cc(S(=O)(=O)N2CCCCC2)ccc1OC(C)C	3.5	-13	1	5979	-6	0	-1
O=C(Nc1cccc([N+](=O)[O-])c1)c1cc(S(=O)(=O)N2CCOCC2)cs1	-2.0	2	2	5097	6	2	2
Cn1c(=NC(=O)C2CC2)sc2cccc(F)c21	-5.7	0	1	5785	-27	8	8
CCn1cc(C(=O)NN)c(=O)c2cc(F)c(N3CCN(C)CC3)cc21	2.5	14	8	4129	-16	15	2
Cc1c(CC(=O)NCC(=O)N[C@H](Cc2ccccc2)C(=O)O)c(=O)oc2cc(O)ccc12	0.1	-6	4	5094	-14	.	.
CN(C)c1ccc(C2OC(=O)C3(CCCC3)C(=O)C2(C)C)cc1 (stereo not given)	-1.0	13	0	7982	-4	2	1
Cc1ccc(NC(=S)NNC(=O)CCn2cc(C)cn2)cc1	3.7	4	0	20267*	-12	-1	2
O=C(CSC1CS(=O)(=O)c2cc([N+](=O)[O-])ccc21)NNC(=O)c1ccccc1 (stereo not given)	1.8	7	6	3685	-13	0	8
O=[N+]([O-])c1cc(S(=O)(=O)N=C(c2ccccc2)N2CCOCC2)ccc1Cl	0.4	.	15	.	.	9	0
O=[N+]([O-])c1cc(/C=N/O)ccc1SCc1ccccc1Cl	.	13	.	15745	-23	.	.
Cc1ccsc1C=NNc1nc2ccccc2s1	0.6	.	5	.	.	0	-12
COc1cc(/C=N\NS(=O)(=O)c2ccccc2)cc(OC)c1OC	.	6	.	3875	-23	.	.
O=C(NCCc1ccc2c(c1)OCCO2)c1cc(S(=O)(=O)N2CCCC2)ccc1Cl	3.0	.	4	6583	-9	1	7
O=[N+]([O-])c1ccccc1S(=O)(=O)NCc1ccco1	14	1	1	4254	-7	9	1
COC(=O)C1=C(c2ccc(S(C)(=O)=O)cc2)C[C@@H]2CC[C@H]1N2C(=O)NCc1ccco1	.	-5	.	3808	4	.	.
C=CCn1c(N2CCCCCC2)nc2c1c(=O)n(C)c(=O)n2C	5.1	-12	6	5999	-23	8	6
CN(C(=O)c1cccc(NC(=O)Cc2ccc(NC(=O)C3CCCN(C(=O)C4CC4)C3)cc2)c1)C1CCCCC1 (stereo not given)	0.8	.	6	3693	-19	6	10
O=C(OCC(O)COC(=O)c1cccnc1)c1cccnc1	-0.8	-4	0	6740	13	9	-3
COC(=O)c1ccc(CNC(=O)COC(=O)COc2ccc(OC)cc2)cc1	3.0	-18	5	4528	1	4	16
CC(C)CC1NC(=O)C(CO)NC(=O)c2cc([N+](=O)[O-])cc(I)c2OCCC(C(N)=O)NC1=O (stereo not given)	19	.	-5	.	.	-3	7
